# Screens from PubChem.
# Mtb betalactam: beta-lactam sensitization of Mtb H37Rv; M. tuberculosis H37Rv growth with meropenem, percent inhibition; hits of this screen are not shown here; 330,000 tested, 0.27% active; AID 434955; inhibition, % at 25 µM;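 active = about 74% or more and at least 40 points above the plate without the antibiotic, then above 30% in a dose series; inconclusive = first-round hits that could not be retested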;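 note: growth measured after seven days incubation then overnight dye step; 0% = bacteria only wells and 100% = bacteria with antibiotic; twin plates without the antibiotic show which effects depend on it; some results filed as inactive read as strong as hits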
# The depositor's hits bear a star; ? = inconclusive.
# Sample of the layout:
SMILES,Mtb betalactam
COc1ccc(S(=O)(=O)N2CCc3ccccc32)cc1C(=O)NC1(C)CCS(=O)(=O)C1 (stereo not given),-2
Cc1ccc(NC(=O)COC(=O)c2ccc(NC(=O)CC#N)cc2)cc1S(=O)(=O)N1CCOCC1,6

# The listing, from the start:
SMILES,Mtb betalactam
COc1ccc(S(=O)(=O)N2CCc3ccccc32)cc1C(=O)NC1(C)CCS(=O)(=O)C1 (stereo not given),-2
Cc1ccc(NC(=O)COC(=O)c2ccc(NC(=O)CC#N)cc2)cc1S(=O)(=O)N1CCOCC1,6
NC(=O)c1cc(-c2csc(-c3cccnc3)n2)ccc1O,1
CCOC(=O)c1c(C)[nH]c(C)c1C(=O)COC(=O)c1cccnc1Cl,-2
O=C(O)CCCCCCCCCCCNC(=O)NC12CC3CC(CC(C3)C1)C2,4
COC(=O)c1cc2cc(OC)ccc2n1C,-7
CCOC(=O)Nc1ccc2c(CN3CCN(S(=O)(=O)c4ccc(C(C)C)cc4)CC3)cc(=O)oc2c1,-1
COc1ccccc1C(C)NC(=O)C1CCN(S(=O)(=O)c2cccs2)CC1 (stereo not given),5
CC(C)n1ncc2c(C(=O)Nc3ccc(S(N)(=O)=O)cc3)cc(C3CC3)nc21,-6
CCOS(C)(=O)=O,-1
O=C(COC(=O)c1cc(Cl)ccc1O)Nc1ccc2c(c1)OCCO2,-8
COc1ccc(NC(=O)CSc2nnc(C)n2N)cc1S(=O)(=O)N1CCCCC1,-1
COC(=O)C1=C(c2cccc(C#N)c2)C[C@@H]2CC[C@H]1N2C(=O)NCc1ccc(F)cc1,0
Cc1ccc(CNC(=O)CCNC(=O)c2ccc([N+](=O)[O-])cc2)cc1,-6
C[C@H](CO)N1C[C@H](C)[C@@H](CN(C)S(=O)(=O)c2ccc(F)cc2)Oc2c(NS(=O)(=O)c3ccccc3)cccc2C1=O,0
O=C(c1cnn(-c2ccccc2)c1)c1cc(Br)ccc1O,-4
O=C(CN1CCN(S(=O)(=O)c2ccccc2F)CC1)N1CCc2ccccc2C1,-5
COc1cc(CC(=O)OCC(=O)N2CCN(C(=O)c3ccco3)CC2)cc(OC)c1OC,-2
COc1ccccc1OCC(=O)NNC(=O)C1CCN(c2ncnc3sc(C)c(C)c23)CC1,-8
Cn1nc(C(=O)Nc2ccc3c(c2)OCCO3)c2ccccc2c1=O,1
CCCCN(C(=O)c1ccc(N2CCCC2=O)cc1)c1c(N)n(Cc2ccccc2)c(=O)[nH]c1=O,-9
Cc1cc(C)c(C#N)c(SCc2ccc(C(=O)O)cc2)n1,-8
Cc1c(Cl)cccc1NC(=O)CNC(=O)C1CC(=O)N(CCc2ccccc2)C1 (stereo not given),-1
CC(C)(c1ccccc1)c1ccc(OCC(O)CN2CCCC2)cc1 (stereo not given),-4
O=C(COC(=O)c1ccccc1O)Nc1cccc2ccccc12,-5
Cc1cc(O)c(CN2CCN(S(=O)(=O)c3cccs3)CC2)cc1C(C)C,36
CC(C)NC(=O)Nc1cccc2c1O[C@H](CN(C)S(=O)(=O)c1ccc(F)cc1)[C@@H](C)CN([C@H](C)CO)C2=O,-1
O=C(COc1ccc(Br)cc1)Nc1ccc(N2CCOCC2)cc1N1CCOCC1,0
Cc1noc(C)c1S(=O)(=O)Nc1ccc2c(c1)C(=O)N([C@H](C)CO)C[C@H](C)[C@@H](CN(C)S(=O)(=O)c1ccc(F)cc1)O2,7
COc1ccc(OC)c(NC(=O)c2ccc3c(c2)OCO3)c1,1
C=C[C@@H]1c2c(F)cccc2N(S(=O)(=O)c2ccc(C)cc2)[C@H](c2ccc(OC(C)=O)cc2)C1(C#N)C#N,50
COc1ccc([C@H]2CC(=O)C=C(c3ccc(Cl)c(F)c3)C2)cc1,2
COc1cc(Cl)c(NC2=CC(=O)C(=O)c3ccccc32)c(OC)c1,7
CCCCOc1ccc(C(=O)NCC(=O)NNC(=O)C2COc3ccccc3O2)cc1 (stereo not given),-12
Nn1c(SCC(=O)NC2CCCCC2)nnc1-c1ccccc1F,-4
CC(C)(C)OC(=O)C[C@H]1C/C=C\C[C@@H](CC(=O)N(CCO)Cc2ccccc2)C(=O)N[C@H](Cc2c[nH]c3ccccc23)COC1=O,1
CC(C)(C)OC(=O)C[C@@H]1C/C=C\C[C@H](CC(=O)N[C@H](CO)Cc2ccccc2)C(=O)N2CCC[C@H]2COC1=O,-8
Cc1ccc(SCC(=O)OCC(=O)NC(C)c2ccc(F)cc2)cc1 (stereo not given),9
COc1ccc(CNC(=O)CN(C(=O)c2csnn2)c2cccc(C(C)=O)c2)cc1,-8
COc1ccc2c(c1)OC[C@H]1[C@@H]2N2C(=O)[C@@H](C)NC(=O)[C@@]2(C)[C@H]1c1ccccc1,0
CC1CCCN(C(=O)C2CCN(S(=O)(=O)c3ccccc3)CC2)C1 (stereo not given),-11
CN(C)S(=O)(=O)c1cccc(NC(=O)c2ccc(N3CCCC3=O)cc2)c1,-6
O=C(Nc1cccc(S(=O)(=O)NC2=NCCC2)c1)c1ccc(C(F)(F)F)cc1,-3
COC(=O)C1=C(c2ccc(-c3ccccc3)c(F)c2)C[C@@H]2CC[C@H]1N2C(=O)N1CCC(O)CC1,4
N#CCSc1ccccc1NC(=O)COc1ccc(-c2nnco2)cc1,1
COc1ccc2c(c1)OC[C@H]1[C@H]2N2C(=O)CN(Cc3ccco3)C(=O)[C@@]2(C)[C@H]1c1ccccc1,70
N#CCCN(C(=O)COC(=O)CCC(=O)c1cccs1)c1ccccc1,-1
O=C(OCc1ccc(Br)cc1F)c1cc2ccccc2oc1=O,57

# 4 of the compounds above, tab-delimited.
SMILES	Mtb betalactam
CC(C)(C)OC(=O)C[C@@H]1C/C=C\C[C@H](CC(=O)N[C@H](CO)Cc2ccccc2)C(=O)N2CCC[C@H]2COC1=O	-8
Cc1ccc(SCC(=O)OCC(=O)NC(C)c2ccc(F)cc2)cc1 (stereo not given)	9
COc1ccc(CNC(=O)CN(C(=O)c2csnn2)c2cccc(C(C)=O)c2)cc1	-8
COc1ccc2c(c1)OC[C@H]1[C@@H]2N2C(=O)[C@@H](C)NC(=O)[C@@]2(C)[C@H]1c1ccccc1	0

# Fetched one by one from the list above (3):
SMILES,Mtb betalactam
COc1ccccc1OCC(=O)NNC(=O)C1CCN(c2ncnc3sc(C)c(C)c23)CC1,-8
O=C(COC(=O)c1ccccc1O)Nc1cccc2ccccc12,-5
CCCCOc1ccc(C(=O)NCC(=O)NNC(=O)C2COc3ccccc3O2)cc1 (stereo not given),-12

# Continuation.
SMILES,Mtb betalactam
COc1cc(NC(=O)C2CC(=O)N(Cc3ccco3)C2)c(OC)cc1Cl (stereo not given),-11
COC(=O)C1=C(c2c(C)noc2C)C[C@@H]2CC[C@H]1N2C(=O)NC1Cc2ccccc2C1,2
CCOC(=O)C1(Cc2cccc(Cl)c2)CCCN(C(=O)c2cc(C(C)C)nn2C)C1 (stereo not given),?
O=C(NCc1ccc(OC(F)(F)F)cc1)c1cccc2c1C(=O)c1ccc(N3CCCCC3)cc1S2(=O)=O,7
CCCCCc1cc(=O)c2ccccc2o1,-9
COc1ccc(NC(=O)C(=O)Nc2cccc3ccccc23)c(OC)c1,-1
N#Cc1c(SCC(=O)Nc2nc3ccc(Br)cc3s2)sc2c(O)cc(=O)[nH]c12,-4
Cc1ccc(OCC(=O)N(C)CC(=O)Nc2ccccc2Cl)c([N+](=O)[O-])n1,4
O=C(NCCCN1CCCC1=O)C1CCN(S(=O)(=O)c2cccc(Cl)c2Cl)CC1,-2
CN(C)C1=NC[C@H](Cc2ccccc2)N1CCC1CCCC1,3
CCOc1ccc(C(=O)NCC(=O)NNC(=O)c2cc(C)oc2C)cc1OCC,-1
CSc1ncccc1C(=O)OCC(=O)Nc1ccc(N2CCOCC2)cc1,-5
COc1cc(C(=O)OC(C)C(=O)Nc2ccc3c(c2)OCCO3)cc(OC)c1OC (stereo not given),2
O=C(CN1C(=O)NC(c2ccccc2)(c2ccccc2)C1=O)Nc1ccc(N2CCOCC2)cc1,-10
CCC1CCC2(CC1)NC(=O)N(CC(=O)N1CCc3ccccc31)C2=O (stereo not given),-3
COc1c2c(cc3c1OCO3)CCN(C)C2,-5
COc1ccc(NS(=O)(=O)c2cc(C(=O)N3CCC3)ccc2C)cc1,-8
N#CCSc1ccccc1NC(=O)COC(=O)Cc1c[nH]c2ccccc12,-4
O=C(COc1ccccc1)NS(=O)(=O)c1ccccc1,-2
Cc1cc(C)cc(OC(C)C(=O)Nc2ccccc2C(=O)NCc2cccnc2)c1 (stereo not given),1
O=C(COC(=O)c1ccc(F)cc1Cl)NC1CCS(=O)(=O)C1 (stereo not given),-2
O=C(COC(=O)/C=C/c1ccccc1Cl)Nc1cccnc1Cl,3
CCCn1c(=O)c2ccccc2n2c(SC(C)C(N)=O)nnc12 (stereo not given),-2
COc1ccc(NC(=O)c2cccc(S(=O)(=O)N3CCN(c4ccccc4)CC3)c2)c(OC)c1,-5

# Reformatted: results already given
SMILES | Mtb betalactam
N#CCSc1ccccc1NC(=O)COC(=O)Cc1c[nH]c2ccccc12 | -4
O=C(COc1ccccc1)NS(=O)(=O)c1ccccc1 | -2
COc1ccc(NC(=O)c2cccc(S(=O)(=O)N3CCN(c4ccccc4)CC3)c2)c(OC)c1 | -5

# (list continues)
SMILES,Mtb betalactam
O=C(c1cn(Cc2ccccc2)nc1-c1cccnc1)N1CCN(Cc2ccccc2)CC1,-9
O=C(COC(=O)c1ccc(F)cc1)NCC1CCCCC1,6
OCC[C@H]1C[C@@H](O)[C@H](O)[C@]2(CCc3ccccc3O2)O1,-5
CC(C)[C@H](NC(=O)N1C[C@H]2C[C@@H](C1)c1cccc(=O)n1C2)C(=O)Nc1ccccc1F,-2
CCN(CC)S(=O)(=O)c1ccc(N2CCOCC2)c(NC(=O)c2sccc2C)c1,-3
O=C(OCC(=O)N(c1ccccc1)C1CCCCC1)c1ccc(CO)cc1,1
Cn1c2ccccc2c(=O)c2cc(NCCCN3CCOCC3)ccc21,-1
O=C(N/N=C/c1ccc(C(=O)O)cc1)C(=O)N1CCCCCC1,0
COc1ccc2cc(CO)c3cc(OC)c(OC)cc3c2c1,7
O=C(O)CCN1C(=O)/C(=C2\C(=O)N(Cc3ccc(F)cc3)c3ccccc32)SC1=S,49
C=C1[C@H]2CC[C@H]3[C@]4(C)C[C@H](O[C@H]5O[C@H](CO)[C@@H](OS(=O)(=O)O)[C@H](OS(=O)(=O)O)[C@H]5OC(=O)CC(C)C)C[C@@H](C(=O)O)[C@H]4CC[C@]3(C2)[C@H]1O,-4
Cc1ccc(NC(=O)CN2C(=O)NC(C)(C3CC3)C2=O)c([N+](=O)[O-])c1 (stereo not given),9
Cc1cccc(OCC(=O)Nc2nc(-c3ccncc3)cs2)c1,4
COc1ccc(N2CCN(C(=O)[C@@H]3CCCN3C3=NS(=O)(=O)c4ccccc43)CC2)cc1,-3
COc1ccc(OC)c(COC(=O)c2cccc(S(=O)(=O)N3CCCCC3)c2)c1,-6
C[C@H]1COC(=O)[C@H](CC(=O)OC(C)(C)C)C/C=C\C[C@@H](CC(=O)NCCO)C(=O)N1,1
O=C(NCC(c1ccco1)N1CCCC1)c1cc(S(=O)(=O)N2CCOCC2)ccc1Cl (stereo not given),5
O=C1CSc2ccc(C(=O)NCCc3ccc(Cl)cc3Cl)cc2N1,-5
Cc1ccc(S(=O)(=O)N2[C@@H](c3ccccc3)C(C(=O)O)=CC[C@H]2c2ccc(Cl)c(Cl)c2)cc1,3
COc1cccc([C@@H]2CC=C(C(=O)O)[C@H](c3ccc(C)cc3)N2S(=O)(=O)c2ccc(C)cc2)c1,5
CCc1ccc(NC(=O)CCc2ccc(C)o2)cc1,90
COc1ccc(C)cc1-n1nnnc1SCC(=O)NC1CC1,-11
O=C1CN(C(=O)CSc2nc3c(cnn3-c3ccccc3)c(=O)[nH]2)c2ccccc2N1,1
CN(CC(=O)Nc1ccc(F)c(F)c1F)C(=O)Cn1cnc2c1c(=O)n(C)c(=O)n2C,-4
COC(=O)C1=C(c2ccc(Cl)c(C(F)(F)F)c2)C[C@@H]2CC[C@H]1N2C(=O)NCc1ccc2c(c1)OCO2,9
c1ccc(CN(Cc2ccccc2)Cc2nnc(-c3cc4ccccc4[nH]3)s2)cc1,3
CCOc1cc(C(=O)OCc2ccc(OC)cc2)ccc1OCC(=O)N1CCOCC1,0
Fc1ccccc1-c1nnc2n1N=C(c1ccc(OC(F)F)c(OCC3CC3)c1)CS2,7
COc1ccc(CCC(=O)N2CCN(S(=O)(=O)c3ccc(OC(F)(F)F)cc3)CC2)cc1,6
COc1ccc(N2CCN(C(=O)CSc3nc4nc(C)cc(C)n4n3)CC2)cc1,-1
O=C1NCCOC(=O)[C@@H](Cc2ccc(F)cc2)C/C=C\C[C@@H]1CC(=O)N(CCO)Cc1ccccc1,-1
CC(=O)CCc1ccccc1,-1
Cc1ccc(NC(=O)N2CCC(NC(=O)c3ccco3)CC2)cc1,-19
COc1cc(NC(=O)c2ccc(N3CCCC3=O)cc2)cc(OC)c1,2
COC(=O)C1=C(c2ccccc2OCc2ccccc2)C[C@@H]2CC[C@H]1N2C(=O)NCc1ccc(OC)c(OC)c1,1
CC(NC(=O)Cc1ccccc1)C(=O)O (stereo not given),-3
CC(=O)c1c(OCC(=O)N(C)C2CCCCC2)ccc2c(C)cc(=O)oc12,1
COc1ccc(CN2CC[C@H]3C=CCc4cccc(c43)C2)cc1,25
O=C(NCCCN1CCOCC1)c1ccc2c(=O)n(Cc3ccccc3)c(=S)[nH]c2c1,-5
CCCNC(=O)C(Cc1ccc(F)cc1)NC(=O)c1ccccc1 (stereo not given),18
COc1ccc(OC)c(-c2nnc3n2N=C(c2ccc(OC)c(OC4CCOC4)c2)CS3)c1 (stereo not given),2
O=C(c1ccc(F)cc1)N1CCCC(c2nc(-c3ccncc3)no2)C1 (stereo not given),-7
C#C[C@]1(O)CC[C@H]2[C@@H]3CCC4=Cc5nc6nc7ccccc7n6cc5C[C@]4(C)[C@H]3CC[C@@]21C,7
COCCCNC(=O)CC1C[C@H](C(=O)N2CCOCC2)[C@@]2(C)c3[nH]c4ccccc4c3CCN2C1=O (stereo not given in full),-2
COC(=O)Nc1ccc(S(=O)(=O)N2CCC(C(=O)NCc3ccc4c(c3)OCO4)CC2)cc1,3
CCOC(=O)[C@H]1[C@H]2COc3ccccc3[C@@H]2N2C(=O)[C@@H](CO)NC(=O)[C@@]12C,4
O=C(COC(=O)C1CC1)NCc1ccc(Cl)cc1Cl,12

# Only part of the results is shown (hit frequency here may not be typical).
